# Screens deposited in PubChem by Broad Institute.
# MLL AF4-AF9 inh – MLL-AF4/AF9 protein interaction inhibition | P42568 | AlphaScreen, biotin-AF4 peptide binding to FLAG-AF9 | inhibition, % at 10 µM | 0.47% of 350,000 active | AID 651704;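 active means every replicate reaching a set inhibition limit, whatever the replicate mean, cut at about 25% in these data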;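 further: 0% = plate neutral control median and 100% = total signal loss; the record names both 10 and 1 µM as test concentration; the first replicate is given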
# Target sequence (P42568 whole entry, looked up): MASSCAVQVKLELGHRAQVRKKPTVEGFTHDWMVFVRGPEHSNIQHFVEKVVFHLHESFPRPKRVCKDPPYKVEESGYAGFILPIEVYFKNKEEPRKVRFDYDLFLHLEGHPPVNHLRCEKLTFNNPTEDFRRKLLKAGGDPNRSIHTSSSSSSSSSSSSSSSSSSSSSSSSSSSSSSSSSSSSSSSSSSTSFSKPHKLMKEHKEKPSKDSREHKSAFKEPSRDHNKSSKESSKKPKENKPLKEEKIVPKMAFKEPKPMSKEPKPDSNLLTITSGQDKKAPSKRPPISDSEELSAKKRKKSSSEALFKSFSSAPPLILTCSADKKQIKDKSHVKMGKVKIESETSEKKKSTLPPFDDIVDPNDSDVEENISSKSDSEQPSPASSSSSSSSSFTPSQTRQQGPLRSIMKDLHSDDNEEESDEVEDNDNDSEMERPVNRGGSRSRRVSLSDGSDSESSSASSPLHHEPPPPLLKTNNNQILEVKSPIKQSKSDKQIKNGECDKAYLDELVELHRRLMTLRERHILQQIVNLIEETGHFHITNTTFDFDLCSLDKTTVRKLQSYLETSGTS
# Starred values were filed as active, the others as inactive.
SMILES,MLL AF4-AF9 inh
Cc1ccc(S(=O)(=O)N(C)C[C@@H]2Oc3ccc(NC(=O)CCCCCC(=O)Nc4ccccc4N)cc3CC(=O)N([C@H](C)CO)C[C@H]2C)cc1,0.7
C[C@@H]1CCCCO[C@H](CN(C)C(=O)Nc2ccc3c(c2)OCO3)[C@@H](C)CN([C@@H](C)CO)C(=O)c2cc(NC(=O)CCCN(C)C)ccc2O1,0.8
COC(=O)C[C@H]1C[C@H]2c3cc(NC(=O)Nc4ccccc4)ccc3O[C@H]2[C@@H](CO)O1,2.0
O=C(Nc1cccc(F)c1)N1C[C@@H]2[C@H](c3ccccc31)[C@@H](CO)N2C(=O)c1ccccn1,-2.3
C[C@H](CO)N1C[C@H](C)[C@H](CN(C)C(=O)Nc2ccc3c(c2)OCO3)Oc2c(NS(C)(=O)=O)cccc2C1=O,-1.6
Cc1ccc(S(=O)(=O)N2[C@@H](c3ccc(Cl)c(Cl)c3)C(C(=O)O)=C[C@H]2CC2CCCC2)cc1,-1.4
COc1cccc(-c2ccc3n(c2=O)C[C@H]2[C@H](CO)[C@@H](C(=O)NC4CCC4)N(S(C)(=O)=O)[C@@H]32)c1,0.7
C[C@H]1CN([C@@H](C)CO)C(=O)Cc2cc(NC(=O)Nc3ccc(F)cc3)ccc2O[C@@H]1CN(C)Cc1ccc(Cl)c(Cl)c1,-2.5
COc1ccc(CN2C[C@@H](C)[C@@H](OC)CN(C)C(=O)c3cc(NC(=O)c4nc5ccccc5s4)ccc3OC[C@@H]2C)cc1,2.9
O=C(c1cccc(F)c1)N1CC2(C1)[C@@H](c1ccccc1)[C@H](CO)N2Cc1ccccn1,1.2
COc1cccc(CNC(=O)C[C@@H]2CC[C@H](NC(=O)C3CC3)[C@H](CO)O2)c1,-1.6
C[C@@H]1CN([C@@H](C)CO)C(=O)c2cccc(NC(=O)C3CCCCC3)c2O[C@H]1CN(C)S(=O)(=O)c1ccc(F)cc1,-1.5
Cc1noc(C)c1S(=O)(=O)N(C)C[C@@H]1Oc2ccc(NC(=O)NC(C)C)cc2CC(=O)N([C@H](C)CO)C[C@@H]1C,1.1
Cn1cnc(S(=O)(=O)N2CC[C@H]3[C@H](CO)Nc4ccc(C#Cc5ccc(F)cc5)cc4[C@H]32)c1,21.7
COc1cccc(C(=O)N2[C@H](COCc3ccccc3)C=CS2(=O)=O)c1,-1.2
C[C@H](CO)N1C[C@H](C)[C@@H](CN(C)S(=O)(=O)c2ccccc2)Oc2ccc(NC(=O)NC3CCCCC3)cc2CC1=O,2.0
Cc1noc(C)c1NC(=O)N(C)C[C@H]1Oc2c(NC(=O)c3ccc(-c4nccs4)cc3)cccc2C(=O)N([C@H](C)CO)C[C@@H]1C,-4.4
CNC[C@@H]1Oc2cc(C#Cc3cccc(OC)c3)ccc2S(=O)(=O)N([C@@H](C)CO)C[C@@H]1C,13.0
C[C@@H]1CN([C@@H](C)CO)S(=O)(=O)c2ccc(C#Cc3ccccc3)cc2O[C@@H]1CN(C)S(=O)(=O)c1ccccc1F,-1.5
COc1cccc(NC(=O)C[C@@H]2CC[C@H]3[C@@H](COc4ccc(NC(C)=O)cc4C(=O)N3C)O2)c1,-0.2

# 3 entries already listed, arranged by number of heavy atoms, falling:
SMILES,MLL AF4-AF9 inh
Cc1ccc(S(=O)(=O)N(C)C[C@@H]2Oc3ccc(NC(=O)CCCCCC(=O)Nc4ccccc4N)cc3CC(=O)N([C@H](C)CO)C[C@H]2C)cc1,0.7
C[C@@H]1CN([C@@H](C)CO)C(=O)c2cccc(NC(=O)C3CCCCC3)c2O[C@H]1CN(C)S(=O)(=O)c1ccc(F)cc1,-1.5
COc1cccc(NC(=O)C[C@@H]2CC[C@H]3[C@@H](COc4ccc(NC(C)=O)cc4C(=O)N3C)O2)c1,-0.2

# Another view of 4 compounds above:
compound	MLL AF4-AF9 inh
Cn1cnc(S(=O)(=O)N2CC[C@H]3[C@H](CO)Nc4ccc(C#Cc5ccc(F)cc5)cc4[C@H]32)c1	21.7
Cc1noc(C)c1NC(=O)N(C)C[C@H]1Oc2c(NC(=O)c3ccc(-c4nccs4)cc3)cccc2C(=O)N([C@H](C)CO)C[C@@H]1C	-4.4
C[C@@H]1CCCCO[C@H](CN(C)C(=O)Nc2ccc3c(c2)OCO3)[C@@H](C)CN([C@@H](C)CO)C(=O)c2cc(NC(=O)CCCN(C)C)ccc2O1	0.8
C[C@@H]1CN([C@@H](C)CO)C(=O)c2cccc(NC(=O)C3CCCCC3)c2O[C@H]1CN(C)S(=O)(=O)c1ccc(F)cc1	-1.5

# (further entries)
SMILES,MLL AF4-AF9 inh
C[C@H](CO)N1C[C@H](C)[C@@H](CN(C)CC2CC2)Oc2ccc(NS(=O)(=O)c3ccccc3)cc2C1=O,-0.8
C[C@@H]1CCCCO[C@H](CN(C)C(=O)Nc2ccc(F)cc2)[C@H](C)CN([C@H](C)CO)C(=O)c2cc(NS(=O)(=O)c3cccs3)ccc2O1,-8.4
COc1ccc(NC(=O)N(C)C[C@@H]2OCCCC[C@H](C)Oc3ccc(NC(=O)Cc4ccccc4)cc3C(=O)N([C@H](C)CO)C[C@@H]2C)cc1,-1.4
C[C@H]1CCCCO[C@@H](CN(C)Cc2ccc(C(=O)O)cc2)[C@@H](C)CN([C@@H](C)CO)C(=O)c2cc(NC(=O)Nc3ccc(F)cc3)ccc2O1,0.3
CO[C@H]1CN(C)C(=O)c2ccc(NC(=O)C3CCCC3)cc2OC[C@@H](C)NC[C@H]1C,-6.6
CSc1ccccc1NC(=O)CN(C)C(=O)C(C)SCc1nc2sc(C)c(C)c2c(=O)[nH]1 (stereo not given),-2.2
Cc1ccc(S(=O)(=O)N(C)C[C@H]2Oc3ccc(NC(=O)CCCCCC(=O)Nc4ccccc4N)cc3CC(=O)N([C@@H](C)CO)C[C@@H]2C)cc1,0.8
C[C@H](CO)N1C[C@H](C)[C@H](CN(C)C(=O)Nc2ccccc2)Oc2ncc(-c3cccnc3)cc2C1=O,-3.4
C[C@@H]1CCCCO[C@@H](CN(C)C(=O)Cc2ccccc2)[C@@H](C)CN([C@@H](C)CO)C(=O)c2cc(NC(=O)Nc3ccc(C(F)(F)F)cc3)ccc2O1,-1.3
COc1cccc(NC(=O)C2(C)CCN2CCc2ccccc2)c1 (stereo not given),3.1
C[C@H](CO)N1C[C@H](C)[C@@H](CN(C)Cc2ccc(C(F)(F)F)cc2)Oc2ccc(NC(=O)Nc3ccccc3)cc2CC1=O,0.3
COc1ccc(-c2ccccc2)cc1NC(=O)[C@@H]1O[C@H](CO)[C@H](O)[C@H](O)[C@H]1O,1.6
O=C(Nc1ccc(F)cc1)Nc1ccc2c(c1)[C@H]1C[C@@H](CC(=O)N3CCOCC3)O[C@H](CO)[C@H]1O2,-5.8
CCS(=O)(=O)N1CCCCN2[C@H](CO)[C@H](c3ccc(C#CC(C)(C)O)cc3)[C@H]2C1,-6.3
O=C(C[C@@H]1C=C[C@H](NC(=O)C2CCC2)[C@@H](CO)O1)NCc1ccncc1,-0.6
C[C@@H]1CCCCO[C@@H](CN(C)S(=O)(=O)c2cn(C)cn2)[C@@H](C)CN([C@H](C)CO)C(=O)c2cc(NS(=O)(=O)c3ccc(F)cc3)ccc2O1,-1.5
CCc1nc2ccc(C(=O)NCC3CCCCC3)cn2c1N(C)Cc1ccc(OC)cc1,7.3
CNC[C@@H]1Oc2ccc(NC(=O)CCCN(C)C)cc2C(=O)N([C@H](C)CO)C[C@@H]1C,1.5
CC1(C(=O)NS(=O)(=O)C2CC2)CCN(C(=O)c2cccc(Cl)c2)C1 (stereo not given),0.4
CC1(C(=O)Nc2ccc3nc[nH]c3c2)CCN1C(=O)C1(c2ccccc2)CCCC1 (stereo not given),-1.9
O=C(NC(c1ccc2ccccc2n1)c1cccs1)C1CCN(Cc2cccc(C(F)(F)F)c2)CC1 (stereo not given),-2.0
OC[C@@H]1[C@@H](c2ccccc2)C2(CN(Cc3nccs3)C2)N1Cc1ccccc1,0.7
C[C@H](CO)N1C[C@H](C)[C@H](CN(C)Cc2ccccc2)Oc2ccc(N(C)C)cc2C1=O,-1.4
NC(Cc1ccc(F)cc1)c1csc(Nc2ccc(C(=O)c3ccccc3)cc2)n1 (stereo not given),8.5
O=C(C[C@@H]1CC[C@H]2[C@@H](COC[C@@H](O)CN2C(=O)c2cccnc2)O1)NC1Cc2ccccc2C1,-1.3
OCc1cccc(-c2csc(C(O)c3ccccc3)n2)c1 (stereo not given),-4.2
CCCN(C)C[C@H]1Oc2ncc(-c3ccccc3)cc2C(=O)N([C@H](C)CO)C[C@H]1C,-0.3
CCCN1C[C@@H](C)[C@H](OC)CN(C)C(=O)c2cc(NC(=O)c3ccc(F)cc3)ccc2OC[C@@H]1C,-1.6
C[C@H](CO)N1C[C@H](C)[C@@H](CN(C)S(=O)(=O)c2ccccc2F)Oc2cc(C#Cc3cccc(F)c3)ccc2S1(=O)=O,-2.1
CN(C)CC(=O)N[C@H]1CC[C@@H](CCNS(=O)(=O)c2ccccc2)O[C@H]1CO,-0.5
C[C@@H]1CN([C@@H](C)CO)C(=O)c2cc(NC(=O)Nc3cccc4ccccc34)ccc2O[C@@H]1CN(C)Cc1ccc(Cl)c(Cl)c1,-1.8
CCCOc1ccc(F)cc1-c1cc(C(=O)Nc2cc(OC)c(OC)c(OC)c2)[nH]n1,-0.3
C[C@H](CO)N1C[C@H](C)[C@H](CN(C)C(=O)NC2CCCC2)Oc2ncc(C3=CCCC3)cc2C1=O,-22.1
O=C(COc1ccc(Cl)cc1Cl)NCCN1CCCCC1,-2.1
C[C@@H]1CN([C@H](C)CO)C(=O)c2cccc(NS(C)(=O)=O)c2O[C@@H]1CN(C)Cc1ccc(-c2ccccc2)cc1,2.5
CC(=O)N(C)C[C@H]1Oc2ncc(-c3cccc(C#N)c3)cc2C(=O)N([C@H](C)CO)C[C@H]1C,-2.7
O=C(C[C@@H]1C[C@@H]2c3cc(NS(=O)(=O)c4ccc(F)cc4)ccc3O[C@@H]2[C@H](CO)O1)NC1CCCCC1,-0.6
Cc1noc(C)c1NC(=O)Nc1cccc2c1O[C@H](CN(C)Cc1ccccc1)[C@@H](C)CN([C@H](C)CO)C2=O,-0.2
CN(C)C(=O)c1cccc(-c2ccc3c(c2)[C@@H]2[C@@H](CCN2C(=O)c2cccc(F)c2)[C@H](CO)N3C)c1,1.9
Cc1cccc(S(=O)(=O)NC(=O)C2(C)CCN2C(=O)CC2CCCCC2)c1 (stereo not given),-24.3

# Two compounds picked at random from those above:
SMILES,MLL AF4-AF9 inh
O=C(Nc1cccc(F)c1)N1C[C@@H]2[C@H](c3ccccc31)[C@@H](CO)N2C(=O)c1ccccn1,-2.3
C[C@H](CO)N1C[C@H](C)[C@H](CN(C)C(=O)Nc2ccc3c(c2)OCO3)Oc2c(NS(C)(=O)=O)cccc2C1=O,-1.6

# (cont.)
SMILES,MLL AF4-AF9 inh
C[C@@H]1CN([C@@H](C)CO)C(=O)c2ccccc2-c2ccccc2CO[C@@H]1CN(C)Cc1ccc2c(c1)OCO2,8.9
Cc1noc(C)c1NC(=O)Nc1ccc2c(c1)CC(=O)N([C@H](C)CO)C[C@@H](C)[C@@H](CN(C)Cc1ccc(-c3ccccc3)cc1)O2,1.1
CN(C)C(=O)c1ccc(-c2ccc([C@@H]3[C@@H](CO)N4CCCCN(C(=O)C5CCC5)C[C@H]34)cc2)cc1,9.1
CCCC#Cc1cnc2c(c1)C(=O)N([C@@H](C)CO)C[C@@H](C)[C@@H](CN(C)C(=O)C1CCC1)O2,-4.1
C[C@H]1CN([C@@H](C)CO)S(=O)(=O)c2ccc(C#Cc3ccc(F)cc3)cc2O[C@H]1CN(C)C(=O)NC1CCCCC1,-0.8
COCC(=O)Nc1ccc2c(c1)OC[C@@H](C)N(C(=O)c1ccccc1)C[C@H](C)[C@@H](OC)CN(C)C2=O,-1.2
C[C@@H]1CN([C@H](C)CO)C(=O)c2cccc(NS(=O)(=O)c3cccs3)c2O[C@@H]1CN(C)CC1CCCCC1,0.9
CC(C)c1cn([C@H]2C[C@@H]3O[C@H](CO)CC[C@@H]3O[C@@H]2CCc2ccc(C#CC3(O)CCCC3)cc2)nn1,-0.3
C[C@@H]1CN([C@@H](C)CO)C(=O)c2cc(-c3ccccc3)cnc2O[C@H]1CN(C)Cc1cccnc1,-5.0
Cc1ccc(S(=O)(=O)Nc2cccc3c2O[C@@H](CN(C)Cc2ccc(-c4ccccc4)cc2)[C@@H](C)CN([C@H](C)CO)C3=O)cc1,0.8
COc1ccc2c3c(n(C)c2c1)[C@H](CO)N(S(C)(=O)=O)CC31CN(C(=O)C2CC2)C1,0.4
Clc1ccc(-c2nc3c4ccccc4ccn3c2Cc2cccc(Cl)c2)cc1,-1.4
C[C@@H]1CN([C@H](C)CO)C(=O)Cc2cc(NC(=O)CCN3CCOCC3)ccc2O[C@@H]1CN(C)C,7.7
COc1ccc(CN(C)C[C@H]2Oc3ccc(NC(=O)Nc4ccc(C(F)(F)F)cc4)cc3C(=O)N([C@@H](C)CO)C[C@@H]2C)cc1,2.0
O=S(=O)(NCCc1nc2ccccc2[nH]1)c1ccccc1,-11.2
Cc1ccc(S(=O)(=O)Nc2ccc3c(c2)C(=O)N([C@@H](C)CO)C[C@H](C)[C@@H](CN(C)Cc2ccncc2)O3)cc1,-1.5
C[C@@H]1CN([C@@H](C)CO)C(=O)c2cc(NC(=O)Nc3ccc(F)cc3)ccc2O[C@@H](C)CCCCO[C@@H]1CN(C)Cc1ccc2c(c1)OCO2,-3.6
N#C[C@@H]1[C@@H](c2ccccc2-c2cccc(F)c2)[C@H](CO)N1C(=O)C1CCCCC1,-1.6
C[C@H](CO)N1C[C@H](C)[C@@H](CN(C)CC2CC2)Oc2cc(-c3ccccc3)ccc2S1(=O)=O,2.1
c1csc(CNc2ccn3nc(-c4ccc(OCCN5CCOCC5)cc4)cc3n2)c1,3.0
CCCC#Cc1ccc2c(c1)O[C@@H](CN(C)C(C)=O)[C@H](C)CN([C@H](C)CO)S2(=O)=O,-1.8
CCOC(=O)[C@]12CCCC=C1N(Cc1ccco1)C(=O)[C@H](CC(=O)NCc1ccccc1)C2,-0.5
C/C=C/c1ccc([C@H]2[C@@H](CO)N(C(=O)COC)[C@@H]2CNC(=O)CC)cc1,-2.3
Nc1nc(Cl)nc2c1ncn2C1CCC(CO)O1 (stereo not given),-3.2

# Not all compounds are listed, so the mix of outcomes need not match the whole.
